Screening data as filed in PubChem BioAssay.
LANA-H2A inh – blocks KSHV LANA binding to histone H2A/H2B. Q9QR71. cell-free LANA-H2A/H2B peptide, fluorescence polarization. inhibition, % (test concentration not listed). 0.6% of 320,000 active; in the data active means inhibition mostly above about 10%, no sharp cut-off; inactive means mostly below about 6.7%;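 further: stock transfer was 7.5 nL into about 10 µL; 0% = median of vehicle wells and 100% = median of positive control wells; one replicate is shown; the record names a cut of 25% in any replicate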
Target sequence (Q9QR71 whole entry, looked up): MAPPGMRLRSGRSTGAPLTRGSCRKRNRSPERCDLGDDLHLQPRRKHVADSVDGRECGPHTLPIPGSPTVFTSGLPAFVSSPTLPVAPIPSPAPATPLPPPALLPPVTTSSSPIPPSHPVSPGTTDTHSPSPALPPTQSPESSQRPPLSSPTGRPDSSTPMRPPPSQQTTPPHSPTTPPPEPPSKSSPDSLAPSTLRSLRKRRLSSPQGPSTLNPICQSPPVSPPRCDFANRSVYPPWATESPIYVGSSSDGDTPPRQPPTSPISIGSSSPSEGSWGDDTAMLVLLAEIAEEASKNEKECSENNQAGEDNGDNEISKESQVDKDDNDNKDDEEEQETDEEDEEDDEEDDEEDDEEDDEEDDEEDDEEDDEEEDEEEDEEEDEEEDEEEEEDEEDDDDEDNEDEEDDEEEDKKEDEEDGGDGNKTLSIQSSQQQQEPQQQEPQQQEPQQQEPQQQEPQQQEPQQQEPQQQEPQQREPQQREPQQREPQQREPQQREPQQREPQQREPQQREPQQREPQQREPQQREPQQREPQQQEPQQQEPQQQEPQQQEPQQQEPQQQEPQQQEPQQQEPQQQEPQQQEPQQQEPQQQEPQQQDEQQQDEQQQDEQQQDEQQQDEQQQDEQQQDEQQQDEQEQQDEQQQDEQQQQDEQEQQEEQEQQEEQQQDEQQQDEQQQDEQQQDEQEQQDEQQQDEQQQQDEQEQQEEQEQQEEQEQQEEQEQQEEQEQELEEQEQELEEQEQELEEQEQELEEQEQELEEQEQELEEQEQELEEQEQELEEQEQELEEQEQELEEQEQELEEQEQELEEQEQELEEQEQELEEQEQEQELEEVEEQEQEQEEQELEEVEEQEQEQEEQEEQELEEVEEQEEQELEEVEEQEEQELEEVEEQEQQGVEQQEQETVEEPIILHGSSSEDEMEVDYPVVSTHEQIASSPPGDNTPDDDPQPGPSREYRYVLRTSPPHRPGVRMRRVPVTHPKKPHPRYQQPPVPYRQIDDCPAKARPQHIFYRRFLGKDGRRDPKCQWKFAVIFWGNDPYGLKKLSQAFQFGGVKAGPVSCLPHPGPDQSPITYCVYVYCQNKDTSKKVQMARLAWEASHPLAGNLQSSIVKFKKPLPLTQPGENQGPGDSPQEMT
RanGTP-Impb inh – inhibitors of RanGTP-importin-beta interaction, primary screen, biochemical, FRET, CFP-Ran, YFP-importin-beta, homogeneous; AID 2216; cell-free CFP-Ran/YFP-importin-beta FRET ratio; inhibition, % (test concentration not listed); 1.1% of 300,000 active;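 active means most replicates above 15%; inconclusive means exactly half above 15%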;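 further: 0% = DMSO wells and 100% = Ran loaded with GDP instead of GTP; wells of about 40 µL received 100 nL stock; the first replicate is given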
Calb FLC – C. albicans growth modulation with fluconazole; C. albicans CaCi-2 (fluconazole-resistant clinical isolate) + fluconazole, Alamar Blue growth, 48 h; growth inhibition, % (no concentration beside the values); 0.57% of 300,000 active;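 active means most replicates above 75%; inconclusive means exactly half above 75%; inactive means most below 75%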;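 further: all wells also contain fluconazole at 8 µg/ml as a sub-toxic cotreatment; 0% = median of DMSO wells and 100% = median of geldanamycin control wells; wells of about 8 µL received 7.5 nL stock; the first replicate is given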
Beta cell apopt – beta cell apoptosis inhibition. protection from apoptosis, % (test concentration not listed). AID 435005. INS-1E cytokine-induced death, ATP luminescence, 48 h; percent of positive-control rescue, neutral wells zero. 0.8% of 300,000 active;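 active means all replicates at 75% or more, or half of them and the mean; inconclusive means half reach 75% but not the mean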;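 further: 0% = cytokine-treated negative control wells and 100% = positive control rescue; higher means more ATP so stronger rescue from cytokine killing; wells of about 40 µL received 100 nL stock; the first replicate is given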
T cruzi repl – blocks replication of Trypanosoma cruzi; T. cruzi beta-gal in NIH3T3, luminescence, 90 h; inhibition, % (test concentration not listed); 1.4% of 300,000 active;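 active means mean inhibition across valid replicates above about 55%, limit read from the data; inconclusive means mean below that limit but half or more replicates reach it; inactive means mean below it, under half of replicates reach it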;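 further: signal also drops with host cell toxicity which is not excluded here; 0% = plate median of DMSO wells and 100% = zero luminescence signal; higher percent means less beta-gal luminescence so fewer parasites; stock transfer was 50 nL into about 50 µL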
Bfl-1 A1 inh – inhibitors of the anti-apoptotic protein A1, read as caspase activation; MEF A1-2A-BIM cells, Caspase-Glo 3/7 luminescence, 3 h; percent of clofoctol response, vehicle zero; caspase activation, % (test concentration not listed); 0.066% of 330,000 active; AID 2462;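 active means over half of replicate activation scores above 10%, or exactly half above 10 with the replicate mean above 10; inconclusive means replicate mean below 10 yet half the replicates above 10; inactive means over half of replicates below 10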;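 further: wells of about 30 µL received 50 nL stock; many hits fall short of the cut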
UCH37 DUB inh – human UCH37 deubiquitinating enzyme inhibition. purified proteasome/UCH37, Ub-AMC cleavage fluorescence. inhibition, % (no concentration beside the values). 0.33% of 330,000 active;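 active means mean of two replicates above 20%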;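 further: 0% = compound-free wells with enzyme and 100% = wells lacking proteasome; stock transfer was 100 nL into about 20 µL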
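Reagent: Ub-AMC substrate; assay system: Proteasome-associated human UCH37 deubiquitinase; controls: no-proteasome and no-compound wells; read-out: % inhibition of Ub-AMC cleavage fluorescence; timing: 30 min preincubation with enzyme, 25 min cleavage at room temperature; signal: AMC fluorescence from Ub-AMC cleavage, excitation 355 nm, emission 460 nm; buffer or medium: Tris-HCl pH 7.4 plus ovalbumin, ATP-MgCl2, DTT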
Beta2AR agonist – human beta-2 adrenergic receptor agonism by FAP; P07550; Am2.2-beta2AR cells, FAP receptor internalization, flow cytometry; reference of the scale not given here; response, % (test concentration not listed); 0.43% of 340,000 active; AID 504454;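 active means response above a set limit, near 3 SD of response in nonfluorescent compounds, cut at about 42% in these data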;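 further: stock transfer was 100 nL into about 11 µL; a reference agonist was the positive control; negative values mostly stem from fluorescent compounds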
* hit, by the source's call; ? = inconclusive; . = no result given. Hits appear at their usual frequency. About 4.3% of those tested had a hit in this group.

SMILES,LANA-H2A inh,RanGTP-Impb inh,Calb FLC,Beta cell apopt,T cruzi repl,Bfl-1 A1 inh,UCH37 DUB inh,Beta2AR agonist
Cc1ccc(C(=O)NCCCn2ccnc2)cc1[N+](=O)[O-],3.7,2.0,-5,1,5,-0.1,1.6,30
CCOC(=O)C/C(C)=N/NC(=O)C1CC1(c1ccccc1)c1ccccc1 (stereo not given),-4.0,2.3,-32,1,-14,-0.6,.,2
CC(=O)c1cccc(NC(=O)CN2CCN(S(=O)(=O)/C=C/c3ccccc3)CC2)c1,3.2,.,.,-10,.,1.3,1.1,-3
COc1ccc(NC(=S)N2CCCN(Cc3cccc(Cl)c3)C2)cc1,-0.8,-2.2,-12,-11,16,0.2,2.7,-11
Cc1cc(C)c(NC(=S)N(CCc2ccncc2)C(C)C)c(C)c1,6.4,0.5,3,-4,-4,0.8,3.1,4
CNC(=S)Nc1ccc(OCc2ccccc2)cc1,8.3,-3.4,-14,-6,-14,-0.3,6.4,-6
O=C(c1ccc(NC(=S)Nc2ccc(Cl)c(Cl)c2)cc1)N1CCCC1,-1.1,2.8,-20,-2,-5,-0.3,1.7,-5
CCC(c1nnnn1CCc1ccccc1)N1CCN(C(=O)c2ccco2)CC1 (stereo not given),1.0,0.2,6,-18,-2,-0.8,2.8,-6
COc1ccc(OC)c(CNC(=O)C2CCN(S(=O)(=O)N3CCCCC3)CC2)c1,9.8,0.4,2,4,8,0.3,3.1,-8
Cc1ccc(NC(=S)NCC2CCCO2)cc1 (stereo not given),2.1,1.7,-4,.,-40,0.7,0.8,9
CS(=O)(=O)N1CCN(C(=O)c2ccc(-c3ccccc3)cc2)CC1,4.6,-0.8,41,-6,2,1.3,-1.5,5
Cc1nn(Cc2ccc(Cl)c(Cl)c2)c(C)c1NC(=O)c1cc(-c2ccco2)on1,-6.2,1.3,24,23,-23,-0.5,-3.5,-14
CCOC(=O)/C(N=Nc1sc(C(=O)OCC)c(C)c1C(=O)OCC)=C(\C)O,-4.8,-1.9,-2,-4,-7,-1.6,5.3,.
CCc1nc(N[C@@H](CC(C)C)C(=O)O)c2oc3ccccc3c2n1,-4.6,-2.5,?,-1,-16,0.4,-0.7,2
CC(C)(C)OC(=O)NC(CCNC=C1C(=O)OC(C)(C)OC1=O)C(=O)O (stereo not given),-3.2,1.5,7,-4,-5,-1.2,2.2,-2
O=C(NN=Cc1ccccc1OC(F)F)c1ccc(NS(=O)(=O)c2cccs2)cc1,-1.2,.,.,10,.,0.7,-4.9,5
Cc1nn(Cc2ccccc2)c(Cl)c1C(=O)NCc1ccco1,5.8,1.3,35,-1,-1,0.7,-1.4,-4
O=C(COc1ccc(Br)cc1)NCc1ccccn1,12,0.8,2,-2,-27,0.6,3.2,8
CCOC(=O)c1c(C=O)c(C)n(Cc2ccccc2Cl)c1C,0.8,-3.1,-11,8,13,-0.3,2.4,3
COc1ccc(NC(=O)Nc2ccc3c(c2)C(=O)N([C@@H](C)CO)C[C@@H](C)[C@@H](CN(C)CC2CCCCC2)O3)cc1,2.1,.,.,-2,.,0.0,0.7,9
CSCCC(NC(=O)c1ccccc1Cl)C(=O)N(C)Cc1cccs1 (stereo not given),-2.6,1.4,-8,2,0,1.3,4.1,7
O=C1c2cccc3c(O)ccc(c23)C(=O)N1c1ccc(Cl)cc1,23*,-179,-1,7,-9,-2.7,.,-110
CCCC(=O)n1nc(NCc2ccc(OC)cc2)nc1NCc1ccc(OC)cc1,-2.8,0.9,-1,-5,7,-0.1,2.9,-5
OC(CN1CCCCC1)CN(c1ccccc1)c1ccccc1 (stereo not given),5.3,-2.6,-12,2,-2,0.3,-4.9,14
CCOC(=O)c1sc(NC(=O)CN2C(=O)C3CC=CCC3C2=O)nc1C (stereo not given),-3.2,.,.,-1,.,?,1.5,1
Cc1ccc(-n2nc(C(=O)O)cc2-c2ccc(Cl)cc2)cc1,-0.8,0.5,49,-5,-4,0.0,4.0,6
CC(=O)c1sc(NC(=O)COc2ccc(Cl)cc2Cl)nc1C,-7.7,0.2,-5,-1,.,-0.7,2.2,-3
CN(C)S(=O)(=O)c1ccc(NS(=O)(=O)/C=C/c2ccccc2)cc1,0.0,-0.3,10,-4,7,-1.5,5.0,2
O=C(CSc1nc2[nH]ncc2c(=O)[nH]1)Nc1ccccc1,-0.4,-2.1,-25,0,-16,-0.4,4.0,-7
O=C(COC(=O)CCNS(=O)(=O)c1ccccc1)NC(=O)Cc1ccccc1,-0.7,.,.,-2,.,-0.1,0.2,7
CCCCOc1ccc(Cc2cnc(N)nc2N)cc1,-5.6,-0.5,13,8,23,-0.1,3.2,-18
COc1ccc(Br)cc1C(=O)Nc1ccc(NC(=O)c2ccco2)cc1,11,-0.5,-2,12,8,0.7,-13,-17
CCOC(=O)/C(=N\Nc1cc(C(F)(F)F)ccc1Cl)N(CC)CC,-5.7,0.1,2,-6,-11,0.8,.,-12
Cc1c(NC(=O)CSc2nncc3ccccc23)c(=O)n(-c2ccccc2)n1C,-0.9,?,-2,-5,6,0.2,2.1,-16
O=C(O)CSc1nc(-c2ccccc2)cc(=O)[nH]1,-5.6,0.8,-2,-2,-31,0.3,6.1,3
COc1ccc(C2CC(=O)C=C(NCCC(C)C)C2)cc1 (stereo not given),0.8,1.8,?,5,-1,-0.2,2.7,7
COc1cccc2cc(-c3n[nH]c(=S)n3C)oc12,1.8,-1.5,-14,-3,0,-0.1,-21,9
O=C(NCc1ccco1)Nc1cccc([N+](=O)[O-])c1,.,0.9,-4,.,-9,.,2.5,-11
N#Cc1c(NC(=O)c2ccc(N3CCOCC3)c([N+](=O)[O-])c2)sc2c1CCCC2,-3.4,3.9,-2,6,-5,-0.2,2.3,-6
COc1cc(S(=O)(=O)N(Cc2cccs2)C2CC2)ccc1-n1cnnn1,-6.3,4.6,-1,.,11,0.0,3.8,-1
CCOCCCNc1nc(C(F)(F)F)nc2c1nnn2Cc1ccccc1Cl,2.7,2.2,-4,10,27,0.1,0.7,-1
COc1ccc(CCNC(=O)CCNS(=O)(=O)c2cccc3nsnc23)cc1OC,-1.1,?,-5,0,3,0.3,1.4,2
O=C(CCC(=O)NCc1ccccc1)NCc1ccccc1,-3.1,-1.8,2,-2,-3,0.0,-0.2,-1
Cc1cccc(NC(=O)CCNS(=O)(=O)c2cccc3nonc23)c1C,2.5,0.9,1,-6,4,0.5,5.7,1
COCCn1c(=O)c2c(nc3n2CC(C)CN3CCc2ccccc2)n(C)c1=O (stereo not given),-0.6,-4.8,2,-1,-2,0.5,.,-3
CCOc1ccccc1Nc1nnc(SCc2nnc(-c3cc(OC)c(OC)c(OC)c3)o2)s1,-0.6,0.4,1,5,2,-0.7,2.6,12
Cc1cc(OCCCCCn2ccnc2)cc(C)c1Cl,-0.4,-1.3,21,-4,49,0.1,2.6,-6
CCOC(=O)NN1C(=O)c2ccccc2NC1c1cccnc1 (stereo not given),0.1,2.0,15,-6,5,-0.2,-285,2
O=C(O)/C=C/C(=O)NC1CCS(=O)(=O)C1 (stereo not given),-0.1,3.8,12,-6,-38,0.9,-2.4,-2
CCCCC(O)(c1ccccc1)C(CN1CCOCC1)c1ccccc1 (stereo not given),-0.8,-1.4,-8,-4,-22,-0.5,5.7,17
CCCCn1c(C(C)NC(=O)CCC)nc2ccccc21 (stereo not given),-2.9,-0.4,-4,1,-1,0.0,2.3,-4
O=C(CSc1nccn1-c1ccc(F)cc1)NCc1ccc(F)cc1,.,-2.4,-12,-1,-8,0.7,5.4,-3
COc1ccc(/C=C/C(=O)O)cc1S(=O)(=O)N1CCc2ccccc2C1,-3.5,0.1,27,-4,-14,0.2,4.2,3
O=C(O)c1cccc(NC(=O)c2ccccc2NC(=O)c2cccc([N+](=O)[O-])c2)c1,1.1,7.7,-17,.,-1,-1.0,0.0,-7
CSc1cccc(NC(=S)Nc2cc(C)ccc2C)c1,-1.7,-1.4,2,-1,8,0.3,4.8,2
CCn1cc(S(=O)(=O)Nc2cccnc2)cn1,-0.9,0.6,-2,-5,-4,1.3,2.8,-3

Next section
SMILES,LANA-H2A inh,RanGTP-Impb inh,Calb FLC,Beta cell apopt,T cruzi repl,Bfl-1 A1 inh,UCH37 DUB inh,Beta2AR agonist
Cc1noc(C)c1C(=O)OC(C)C(=O)Nc1ccc(C(N)=O)cc1 (stereo not given),0.7,.,.,-3,.,-0.5,1.3,-2
Cc1ccccc1NC1=C(Cl)C(=O)OC1NC(=O)c1ccccc1 (stereo not given),-2.2,1.6,10,-3,-1,0.9,-0.2,12
Cc1c(OCC(=O)C(C)(C)C)ccc2c3c(c(=O)oc12)CCCC3,0.2,-1.7,-5,.,-9,0.1,-18,-3
Cc1cc(C)c2sc(NC(=O)C3CC3)nc2c1,2.7,-2.3,-4,-1,-13,-0.4,0.2,-11
Cc1cccc(N(CC(=O)N2CCN(C)CC2)S(=O)(=O)c2ccccc2)c1,-1.8,0.3,3,5,-2,-1.5,3.3,-2
Cc1c(Br)cc(C(=O)NCCCN2CCOCC2)c(C)c1C,-0.3,0.4,-3,9,6,1.2,-3.5,4
O=C(NCCN1CCOCC1)c1ccc(Cl)c(S(=O)(=O)NCc2ccccc2)c1,-0.9,.,.,1,.,-0.2,0.7,3
CCOc1ccc(CNC23CN4CN(CN(C4)C2)C3)cc1,1.4,1.2,2,-4,9,0.2,3.3,2

Arranged by molar mass (rising): 3 of the compounds above
SMILES,LANA-H2A inh,RanGTP-Impb inh,Calb FLC,Beta cell apopt,T cruzi repl,Bfl-1 A1 inh,UCH37 DUB inh,Beta2AR agonist
Cc1cc(C)c2sc(NC(=O)C3CC3)nc2c1,2.7,-2.3,-4,-1,-13,-0.4,0.2,-11
CCOc1ccc(CNC23CN4CN(CN(C4)C2)C3)cc1,1.4,1.2,2,-4,9,0.2,3.3,2
Cc1cccc(N(CC(=O)N2CCN(C)CC2)S(=O)(=O)c2ccccc2)c1,-1.8,0.3,3,5,-2,-1.5,3.3,-2

(continued)
SMILES,LANA-H2A inh,RanGTP-Impb inh,Calb FLC,Beta cell apopt,T cruzi repl,Bfl-1 A1 inh,UCH37 DUB inh,Beta2AR agonist
CC(C)[C@H](NC(=O)c1ccccc1)C(=O)OCC(=O)N1CCCCCC1,3.1,-0.9,14,-14,-6,0.3,4.0,-7
Cc1[nH]c(=O)c(C#N)c(C)c1CSc1ncccn1,-8.5,1.9,2,-3,-7,-0.6,-0.7,-8
COC(=O)c1cn(NC(=O)c2cccc(F)c2)c(=O)c2ccccc12,2.9,2.0,-11,0,0,0.7,2.4,-5
CCN1CCN(c2ccc(S(=O)(=O)N3CCOCC3)cc2NC(=O)/C=C/c2ccc(OC)c(OC)c2)CC1,-5.3,1.6,7,-10,1,0.0,.,29
